Source: PubChem
p53 mut binder: binders of human mutant p53, primary screen, biochemical, small molecule microarray, anti-GST fluorescence. small molecule microarray binding. calls only. 0.4% of 17,000 active. AID 624136, 2012;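 active means compounds whose four printed spots each glow above background more than chance allows, each with a p-value under 7%; compounds were printed on slides so no solution concentration is given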;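 further: about 2 pmol printed per array spot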
c-Myc SMM: binders of human c-Myc, primary screen, biochemical, small molecule microarray, anti-His fluorescence; 1.5% of 17,000 active; AID 624141, 2012; calls only; Myc proto-oncogene protein (Homo sapiens), P01106; His-c-Myc binding;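 active means spot fluorescence over background with P-value below 7% in all four replicate spots, showing protein binding; compounds were printed on slides so no solution concentration is given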;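 further: score is binary with 100 for all four spots passing and 0 otherwise; about 2 pmol printed per array spot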
Target sequence (P01106 whole entry, looked up): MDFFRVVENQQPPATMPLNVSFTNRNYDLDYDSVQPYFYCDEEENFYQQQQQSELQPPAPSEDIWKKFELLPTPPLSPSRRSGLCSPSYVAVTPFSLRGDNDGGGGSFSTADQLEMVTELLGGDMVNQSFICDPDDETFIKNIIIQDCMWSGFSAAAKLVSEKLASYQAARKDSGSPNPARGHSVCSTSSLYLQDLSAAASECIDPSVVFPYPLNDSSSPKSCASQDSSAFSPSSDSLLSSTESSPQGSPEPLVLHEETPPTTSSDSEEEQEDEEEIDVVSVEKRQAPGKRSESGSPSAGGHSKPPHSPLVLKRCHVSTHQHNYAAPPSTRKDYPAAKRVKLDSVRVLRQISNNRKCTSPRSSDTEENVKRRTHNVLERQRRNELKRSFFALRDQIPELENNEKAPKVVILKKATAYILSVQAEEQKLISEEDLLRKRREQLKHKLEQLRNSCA
ID4 binder: binders of human ID4 protein, primary screen, biochemical, small molecule microarray, single point. AID 624137, 2012. Flag-ID4 binding, fluorescence F/B. 1.2% of 31,000 active. calls only;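 active means spot signal over background at p below 0.07 in all four prints; compounds were printed on slides so no solution concentration is given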;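 further: a binder raises fluorescence above local background on the spot; about 2 pmol printed per array spot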
Target sequence (P47928 whole entry, looked up): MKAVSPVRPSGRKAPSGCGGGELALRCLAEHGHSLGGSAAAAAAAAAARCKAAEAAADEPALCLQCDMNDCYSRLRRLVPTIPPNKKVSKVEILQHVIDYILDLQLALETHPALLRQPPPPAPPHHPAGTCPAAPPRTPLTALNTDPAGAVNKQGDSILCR
STAT3 binder: STAT3 binders, primary screen, biochemical, small molecule microarray, single point, set 2; Signal transducer and activator of transcription 3 (Homo sapiens), P40763; His-STAT3 binding, anti-His fluorescence; calls only; 0.2% of 17,000 active;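 active means compounds whose four printed spots each show fluorescence over background unusually high for their array block, chance value under 7%; compounds were printed on slides so no solution concentration is given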;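 further: about 2 pmol printed per array spot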
Calls only; i = inactive; nt = no result given. Some of the compounds tested; the hit share may differ from the screen's.

Start of the listing, in advance (2 entries):
SMILES	p53 mut binder	c-Myc SMM	ID4 binder	STAT3 binder
O=S1(=O)NC(=NCCOCc2ccc(Cl)cc2)c2ccccc21	i	i	i	i
Cc1noc(C)c1S(=O)(=O)N(C)C[C@@H]1Oc2ccc(NS(=O)(=O)c3cccs3)cc2CC(=O)N([C@H](C)CO)C[C@@H]1C	i	i	i	i

The listing, repeating the preview:
SMILES	p53 mut binder	c-Myc SMM	ID4 binder	STAT3 binder
O=S1(=O)NC(=NCCOCc2ccc(Cl)cc2)c2ccccc21	i	i	i	i
Cc1noc(C)c1S(=O)(=O)N(C)C[C@@H]1Oc2ccc(NS(=O)(=O)c3cccs3)cc2CC(=O)N([C@H](C)CO)C[C@@H]1C	i	i	i	i
Cc1cc(C(=O)Nc2cccc3c2O[C@H](CN(C)Cc2ccc(C(F)(F)F)cc2)[C@@H](C)CN([C@H](C)CO)C3=O)n(C)n1	i	i	i	i
COc1ccc(NC(=O)Nc2ccc3c(c2)C(=O)N([C@@H](C)CO)C[C@H](C)[C@@H](CN(C)Cc2ccncc2)OCCCC[C@H](C)O3)cc1	i	i	nt	i
COc1ccc(NC(=O)Nc2ccc3c(c2)C(=O)N([C@@H](C)CO)C[C@@H](C)[C@@H](CN(C)S(=O)(=O)c2cccs2)O3)cc1	i	i	i	i
O=C(CSCc1c(Cl)cccc1Cl)Nc1cccnc1	i	i	i	i
C[C@H]1CN([C@@H](C)CO)C(=O)c2cc(NC(=O)Nc3ccc(C(F)(F)F)cc3)ccc2O[C@@H]1CN(C)S(=O)(=O)c1ccc(F)cc1	i	i	nt	i
O=C(O)CCC(=O)Nc1ccc2c(c1)oc1ccccc12	i	i	i	i
COCC1=C2[C@@H](c3ccccc3)OB(O)C[C@@H]2[C@@H]2C(=O)N(C)C(=O)[C@@H]2C1	i	i	i	i
CCn1c(SCC(=O)Nc2cc(C)c(Cl)cc2OC)nnc1-c1cccs1	i	i	i	i
C[C@H]1CN([C@@H](C)CO)C(=O)Cc2cc(NS(=O)(=O)c3ccc(Cl)cc3)ccc2O[C@H]1CN(C)CC1CCCCC1	i	i	i	i
CCCCCCCC(O)C(O)C1CC(OC)=CC(=O)O1 (configuration not stated)	i	i	i	i
CCCN(C)C[C@@H]1Oc2ncc(Br)cc2C(=O)N([C@H](C)CO)C[C@@H]1C	i	i	i	i
CCOc1ccc(N=C2NC(=O)C(CC(=O)Nc3ccc(OC)cc3)S2)cc1 (configuration not stated)	i	i	i	i
C[C@@H]1CCCCO[C@H](CN(C)S(=O)(=O)c2cccs2)[C@@H](C)CN([C@H](C)CO)C(=O)c2cc(N(C)C)ccc2O1	i	i	i	i
C[C@H](CO)N1C[C@H](C)[C@@H](CN(C)Cc2ccc(C(=O)O)cc2)Oc2ccc(NC(=O)Cc3ccccc3)cc2C1=O	i	i	i	i
COc1ccc(CN(C)C[C@@H]2Oc3c(NS(C)(=O)=O)cccc3C(=O)N([C@H](C)CO)C[C@@H]2C)cc1	i	i	i	i
COc1ccccc1NC(=O)Cn1c(C(F)(F)F)nc2ccccc21	i	i	i	i
CC1CC(=O)C2C(O)(C1)CC(O)C13OC1c1c(O)cccc1C(=O)C23O (configuration not stated)	i	i	i	i
C[C@@H]1CN([C@@H](C)CO)C(=O)c2cccc(NC(=O)c3ccncc3)c2O[C@H]1CN(C)Cc1ccc2c(c1)OCO2	i	i	i	i
C[C@@H]1CN([C@@H](C)CO)C(=O)c2cc(NC(=O)CCCN(C)C)ccc2O[C@@H](C)CCCCO[C@H]1CN(C)Cc1ccccc1	i	i	i	i
C[C@@H]1CN([C@H](C)CO)C(=O)c2cccc(NC(=O)c3ccncc3)c2O[C@@H]1CN(C)Cc1ccc(C(F)(F)F)cc1	i	i	i	i
CSc1nsc(SCC(=O)Nc2ccc(C(C)=O)cc2)n1	i	i	i	i
CC(C)NC(=O)N(C)C[C@@H]1Oc2ccc(N(C)C)cc2CC(=O)N([C@@H](C)CO)C[C@@H]1C	i	i	i	i
COc1cc(/C=C/C(=O)NCC(O)c2ccc(O)cc2)ccc1O (configuration not stated)	i	i	nt	i
COc1cc(OC)c2ccc(=O)oc2c1CC(O)C(C)(C)OC (configuration not stated)	i	i	i	i
C[C@H]1CN([C@@H](C)CO)C(=O)CCCn2cc(nn2)CO[C@@H]1CN(C)Cc1cccc2c1OCCCO2	i	i	i	i
COc1ccc(S(=O)(=O)Nc2ccc3c(c2)CC(=O)N([C@@H](C)CO)C[C@@H](C)[C@@H](CN(C)CC2CC2)O3)cc1	i	i	i	i
CC(O)c1nc2ccccc2n1CCCOc1ccccc1 (configuration not stated)	i	i	i	i
COc1ccc(NC(=O)CC(c2ccccc2)c2ccco2)cc1 (configuration not stated)	i	i	i	i
COc1ccc([Si](C)(C)[C@H]2[C@H](CCn3cc([C@H](O)c4ccccc4)nn3)O[C@@]3(C(=O)N(Cc4ccc(N5CCOC5=O)cc4)c4ccccc43)[C@@H]2C)cc1	i	i	nt	i
Cc1cc(C(=O)Nc2cccc3c2O[C@@H](CN(C)Cc2ccc(C(=O)O)cc2)[C@H](C)CN([C@@H](C)CO)C3=O)n(C)n1	i	i	nt	i
Cc1noc(C)c1NC(=O)N(C)C[C@@H]1Oc2ccc(NS(=O)(=O)c3ccc(Cl)cc3)cc2CC(=O)N([C@H](C)CO)C[C@@H]1C	i	i	nt	i
C[C@H](CO)N1C[C@H](C)[C@H](CN(C)C(=O)Nc2ccccc2)Oc2ccc(NC(=O)Cn3cnnn3)cc2CC1=O	i	i	i	i
COc1ccc(CN(C)C[C@H]2Oc3ccc(NS(=O)(=O)c4ccc(OC)cc4)cc3C(=O)N([C@@H](C)CO)C[C@@H]2C)cc1	i	i	i	i
C[C@@H]1CN([C@@H](C)CO)C(=O)Cc2cc(NC(=O)Cc3cn(C)c4ccccc34)ccc2O[C@@H]1CN(C)S(=O)(=O)c1cccs1	i	i	i	i
CNC[C@H]1Oc2ccc(NS(=O)(=O)c3c(C)noc3C)cc2C(=O)N([C@H](C)CO)C[C@@H]1C	i	i	i	i
C[C@H](CO)N1C[C@H](C)[C@H](CN(C)C(=O)Nc2ccc(C(F)(F)F)cc2)Oc2c(NC(=O)C3CCOCC3)cccc2C1=O	i	i	i	i
C[C@H]1CN([C@@H](C)CO)C(=O)c2cc(NC(=O)c3ccncc3)ccc2O[C@H]1CN(C)C(=O)Nc1ccc2c(c1)OCO2	i	i	i	i
O=C(NCCCn1ccnc1)NC(C(F)(F)F)C(F)(F)F	i	i	i	i
Cc1noc(C)c1S(=O)(=O)Nc1ccc2c(c1)C(=O)N([C@H](C)CO)C[C@@H](C)[C@@H](CN(C)C)O2	i	i	i	i
Cc1cc(=O)[nH]c(SC(C)C(=O)Nc2ccc(Cl)cc2)n1 (configuration not stated)	i	i	i	i
C[C@H](CO)N1C[C@H](C)[C@H](CN(C)C)OCc2cn(nn2)CCCC1=O	i	i	i	i
C=C1C(=O)O[C@@H]2[C@H]3C(C)=CC(=O)C3=C(C)C[C@H](O[C@@H]3O[C@H](CO)[C@@H](O)[C@H](O)[C@H]3O)[C@@H]12	i	i	nt	i
O=C(COc1cc(Cl)c(Cl)cc1Cl)NCc1ccco1	i	i	i	i

Reprinted from the part before: 4 compounds, then new ones.
SMILES	p53 mut binder	c-Myc SMM	ID4 binder	STAT3 binder
Cc1cc(=O)[nH]c(SC(C)C(=O)Nc2ccc(Cl)cc2)n1 (configuration not stated)	i	i	i	i
C[C@H](CO)N1C[C@H](C)[C@H](CN(C)C)OCc2cn(nn2)CCCC1=O	i	i	i	i
C=C1C(=O)O[C@@H]2[C@H]3C(C)=CC(=O)C3=C(C)C[C@H](O[C@@H]3O[C@H](CO)[C@@H](O)[C@H](O)[C@H]3O)[C@@H]12	i	i	nt	i
O=C(COc1cc(Cl)c(Cl)cc1Cl)NCc1ccco1	i	i	i	i
C[C@@H]1CN([C@@H](C)CO)C(=O)CCCn2cc(nn2)CO[C@H]1CN(C)S(=O)(=O)c1ccc2c(c1)OCCCO2	i	i	i	i
N#Cc1c(NC(=O)CSc2n[nH]c(-c3ccc(Cl)cc3)n2)sc2c1CCCC2	i	i	i	i
Cc1nc(SCC(=O)c2ccc(Cl)cc2)c2c3c(sc2n1)CCCC3	i	i	i	i
C[C@@H]1CN([C@H](C)CO)C(=O)c2cc(NC(=O)C3CC3)ccc2O[C@@H]1CN(C)Cc1ccc(C(=O)O)cc1	i	i	i	i
CC(C)NC(=O)N(C)C[C@H]1OCCCC[C@@H](C)Oc2ccc(NC(=O)Cc3ccccc3)cc2C(=O)N([C@H](C)CO)C[C@@H]1C	i	i	i	i
Cc1ccc([N+](=O)[O-])cc1NC(=O)C1(c2ccccc2)CCN(S(=O)(=O)c2ccccc2)CC1	i	i	i	i
CS(=O)(=O)N(CC(=O)O)Cc1ccccc1	i	i	i	i
CNC[C@@H]1Oc2ccc(NS(=O)(=O)c3ccc(C)cc3)cc2C(=O)N([C@H](C)CO)C[C@@H]1C	i	i	nt	i
CC(Oc1ccc(Cl)cc1Cl)C(=O)Nc1cc(Cl)ccc1C(=O)O (configuration not stated)	i	i	i	i
CC(C)(C)c1ccc(OCC(=O)Nc2cccc3ncccc23)cc1	i	i	i	i
C[C@@H]1CN([C@@H](C)CO)C(=O)Cc2cc(NC(=O)Nc3ccc(C(F)(F)F)cc3)ccc2O[C@@H]1CN(C)Cc1ccc(C(=O)O)cc1	i	i	i	i
Cc1ccc(F)cc1S(=O)(=O)N[C@@H]1CCN(Cc2ccc(CC(C)C)cc2)C1	i	i	i	i
C[C@@H]1CN([C@@H](C)CO)C(=O)CCCn2cc(nn2)CO[C@@H]1CN(C)C(=O)c1cc(-c2ccccc2)on1	i	i	i	i
C[C@H](CO)N1C[C@H](C)[C@@H](CN(C)C(=O)Nc2ccccc2)Oc2c(NS(=O)(=O)c3ccccc3)cccc2C1=O	i	i	i	i
C[C@H](CO)N1C[C@H](C)[C@H](CN(C)C(=O)Cc2ccccc2)OCCCC[C@H](C)Oc2ccc(NC(=O)Nc3ccc(F)cc3)cc2C1=O	i	i	i	i

Reprinted at random: 3 compounds from above
SMILES	p53 mut binder	c-Myc SMM	ID4 binder	STAT3 binder
CNC[C@@H]1Oc2ccc(NS(=O)(=O)c3ccc(C)cc3)cc2C(=O)N([C@H](C)CO)C[C@@H]1C	i	i	nt	i
C[C@H](CO)N1C[C@H](C)[C@H](CN(C)C(=O)Cc2ccccc2)OCCCC[C@H](C)Oc2ccc(NC(=O)Nc3ccc(F)cc3)cc2C1=O	i	i	i	i
C[C@@H]1CN([C@@H](C)CO)C(=O)CCCn2cc(nn2)CO[C@H]1CN(C)S(=O)(=O)c1ccc2c(c1)OCCCO2	i	i	i	i

New compounds follow
SMILES	p53 mut binder	c-Myc SMM	ID4 binder	STAT3 binder
CC(C)NC(=O)N(C)C[C@@H]1Oc2ccc(NC(=O)Nc3cccc4ccccc34)cc2CC(=O)N([C@H](C)CO)C[C@@H]1C	i	i	nt	i
C[C@H]1CN([C@@H](C)CO)C(=O)Cc2cc(NC(=O)Cc3cn(C)c4ccccc34)ccc2O[C@H]1CN(C)CC1CC1	i	i	i	i
COc1ccc(CN(C)C[C@H]2OCCCC[C@@H](C)Oc3ccc(NC(=O)c4ccncc4)cc3C(=O)N([C@@H](C)CO)C[C@@H]2C)cc1	i	i	nt	i
O=C(COc1ccc([N+](=O)[O-])cc1)Nc1cccc2cccnc12	i	i	i	i
COc1ccc(NC(=O)Nc2cccc3c2O[C@@H](CN(C)CC2CC2)[C@H](C)CN([C@@H](C)CO)C3=O)cc1	i	i	i	i
CCC(C)Nc1nc(OC)nc(Oc2ccc(=O)[nH]n2)n1 (configuration not stated)	i	i	i	i
C[C@H]1CN([C@@H](C)CO)C(=O)Cc2cc(NC(=O)C3CC3)ccc2O[C@H]1CN(C)Cc1ccc(C(F)(F)F)cc1	i	i	i	i
O=C(CN1CCCCC1)Nc1ccc(NC(=O)CN2CCCCC2)cc1	i	i	i	i
CCO[C@@H]1OC(C(=O)N2CCN(Cc3ccccc3)CC2)=C[C@H](C(C)(C)C)[C@H]1CCCO	i	i	i	i
Cc1cc(Cl)c(S(=O)(=O)Nc2cccnc2)cc1OCC(N)=O	i	i	i	i
C#Cc1ccc([C@H]2C=C(C(=O)NCc3nc4ccccc4[nH]3)O[C@@H](OCCCCO)C2)cc1	i	i	i	i
COc1ccc(S(=O)(=O)Nc2ccc3c(c2)C(=O)N([C@@H](C)CO)C[C@H](C)[C@H](CN(C)CC2CC2)O3)cc1	i	i	i	i
C[C@H](CO)N1C[C@H](C)[C@@H](CN(C)C(=O)Nc2ccccc2)Oc2ccc(NC(=O)c3ccncc3)cc2C1=O	i	i	i	i
COc1ccc(S(=O)(=O)N(C)C[C@@H]2Oc3c(NC(=O)C4CCOCC4)cccc3C(=O)N([C@@H](C)CO)C[C@H]2C)cc1	i	i	i	i
COc1cc([N+](=O)[O-])ccc1NC(=O)COc1ccc2ccccc2c1	i	i	i	i
O=C(C1=C[C@H](c2ccc(Br)cc2)C[C@H](OCc2ccc(CO)cc2)O1)N1CCCCCCC1	i	i	i	i
COc1ccc(C(=O)NC(c2ccc(OC)c(OC)c2)c2cc(Cl)c3cccnc3c2O)cc1 (configuration not stated)	i	i	i	i
[N-]=[N+]=Nc1ccccc1C[C@@]1(C(=O)NCCN2CCOCC2)N=C(c2ccc(OCCCO)cc2)O[C@@H]1c1ccccc1	i	i	nt	i
C=CC[C@@]1(C(=O)N(C)C)N=C(c2ccc(OCCCO)cc2)O[C@@H]1c1ccccc1	i	i	i	i
